Assay outcomes (PubChem)
Mtb MenB inh: blocks the Mycobacterium tuberculosis MenB enzyme; AID 540299; P9WNP5; inhibition, %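 (about 12 µg/mL by stock and volumes)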; MenB enzyme assay, absorbance read-out; some hits fall short of the stated cut; 100,000 tested, 0.43% active;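 active means mean of two replicates above 30%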;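 further: 0% = no compound and 100% = wells with inactive enzyme; the first replicate is given; strong numbers were not always called active; inactives centre near -10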
Target sequence (P9WNP5 whole entry, looked up): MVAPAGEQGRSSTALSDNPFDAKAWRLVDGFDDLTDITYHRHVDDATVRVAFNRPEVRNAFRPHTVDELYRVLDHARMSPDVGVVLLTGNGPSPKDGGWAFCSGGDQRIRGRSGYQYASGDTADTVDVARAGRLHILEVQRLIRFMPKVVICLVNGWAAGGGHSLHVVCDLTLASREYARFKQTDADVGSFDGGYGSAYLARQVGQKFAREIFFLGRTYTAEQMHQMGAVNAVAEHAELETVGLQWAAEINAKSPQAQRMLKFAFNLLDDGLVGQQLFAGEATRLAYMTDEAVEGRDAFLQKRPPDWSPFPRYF
Polio RdRp inh: inhibitors of poliovirus RNA polymerase binding and polymerization; P03300; poliovirus polymerase elongation, fluorescence polarization; hits give low values; % elongation, % (compound at 16.7 µg/mL); 150,000 tested, 0.66% active; in the data active means % elongation below about 90%; further: some results filed as inactive read as strong as hits
Target sequence (P03300 1749-2209 limits assumed): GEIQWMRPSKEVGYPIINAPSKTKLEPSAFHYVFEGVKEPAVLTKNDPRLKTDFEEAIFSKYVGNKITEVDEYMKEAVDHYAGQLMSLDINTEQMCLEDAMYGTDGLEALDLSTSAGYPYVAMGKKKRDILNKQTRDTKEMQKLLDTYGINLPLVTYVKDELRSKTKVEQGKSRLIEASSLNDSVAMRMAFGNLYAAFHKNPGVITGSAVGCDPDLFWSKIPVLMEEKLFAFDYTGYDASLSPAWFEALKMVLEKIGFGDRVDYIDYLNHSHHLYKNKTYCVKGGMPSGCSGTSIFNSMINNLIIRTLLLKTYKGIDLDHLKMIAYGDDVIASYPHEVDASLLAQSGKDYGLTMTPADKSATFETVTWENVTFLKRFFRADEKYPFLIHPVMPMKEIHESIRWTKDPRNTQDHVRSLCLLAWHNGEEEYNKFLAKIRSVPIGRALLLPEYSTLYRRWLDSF
Mtb MbtI inh: MbtI salicylate synthase inhibition | purified MbtI enzyme, fluorescence intensity read-out | inhibition, %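 (about 17 µg/mL by stock and volumes)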 | 100,000 tested, 0.89% active;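 active means above 50% in both replicates, above 80% if mildly self-fluorescent; inactive means the rest, strongly fluorescent compounds included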;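 further: 0% = mean of negative and 100% = mean of positive controls; one replicate is shown; some compounds called inactive have numbers as strong as hits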
Polio RdRp inh intensity: second read-out of Polio RdRp inh, no call of its own (marks repeat the call); % elongation; measured here: total intensity read-out; formula for this scale not given here;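 total fluorescence in place of polarization; lower means less elongation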
Active calls of the source: *; i = inactive; . = no result given; & = joins results of further samples.

SMILES,Mtb MenB inh,Polio RdRp inh,Polio RdRp inh intensity,Mtb MbtI inh
Cn1nc(CC(=O)NN)c2ccccc2c1=O,-18,99,111,.
C#CCN1C(=O)S/C(=C/C=C/c2ccc(N(C)C)cc2)C1=O,-107,77,178,-6
CCC1(C)CC(C(CCN)c2ccc(C)cc2)CCO1 (configuration not stated),-1,109,116,.
CC1CCCC(C)N1C(=O)COC(=O)c1ccc(-n2cccc2)cc1 (configuration not stated),-3,112,112,-9
S=C(NCc1ccco1)Nc1ccc2nc(-c3ccccn3)c(-c3ccccn3)nc2c1,-48,101,111,.
Cc1ccc(S(=O)(=O)N2CCCC2C(=O)Nc2cc(C)on2)cc1 (configuration not stated),-11,104,109,-9
COc1ccc2cc(Br)ccc2c1CC(=O)Nc1nccs1,.,102,106,2
Cc1ccc(-c2nnn(CC(=O)Nc3cccc4cccnc34)n2)o1,3,102,100,3
O=C(Nc1ccccc1Cl)c1cccs1,-13,103,99,-5
O=C(NCCc1ccccc1)Nc1ccccc1,9,99,100,3

Limited to Polio RdRp inh (three entries from above):
Compound	Polio RdRp inh
CC1CCCC(C)N1C(=O)COC(=O)c1ccc(-n2cccc2)cc1 (configuration not stated)	112
C#CCN1C(=O)S/C(=C/C=C/c2ccc(N(C)C)cc2)C1=O	77
Cc1ccc(-c2nnn(CC(=O)Nc3cccc4cccnc34)n2)o1	102

Three entries from above, with two lines to a compound.
Order of values – Mtb MenB inh, Polio RdRp inh, Polio RdRp inh intensity, Mtb MbtI inh
Cc1ccc(-c2nnn(CC(=O)Nc3cccc4cccnc34)n2)o1
 : 3, 102, 100, 3
O=C(Nc1ccccc1Cl)c1cccs1
 : -13, 103, 99, -5
C#CCN1C(=O)S/C(=C/C=C/c2ccc(N(C)C)cc2)C1=O
 : -107, 77, 178, -6

Later entries
SMILES,Mtb MenB inh,Polio RdRp inh,Polio RdRp inh intensity,Mtb MbtI inh
Cc1sc(-n2cccc2)c(C(=O)OCc2ccc(C#N)cc2)c1C,-18,105,105,-14
O=C(Cn1nnc(-c2ccccc2)n1)N/N=C1\CCCc2ccccc21,5,99,96,4
OCCN1CN(c2nc3ccccc3s2)CN(c2nc3ccccc3s2)C1,-18,100,99,0
COC(=O)CCSc1ncc(C(F)(F)F)cc1Cl,.,102,105,-12
Cc1ccc(OCC(=O)OC2CCCN(C)C2)cc1 (configuration not stated),0,105,104,.
CCCc1cc(=O)oc2cc(C)cc(OCC(=O)OCC)c12,-15,102,102,-14
O=C(COc1ccccc1)Nc1nc2ccccc2n1CCN1CCCCC1,-43,101,104,-9
N#Cc1ccc(OCC(=O)N2CCCC2=O)cc1,-21,105,105,7
CC(Oc1ccc(F)cc1)C(=O)Nc1cccc(-c2nn[nH]n2)c1 (configuration not stated),0,101,102,32
Cc1ccc(S(=O)(=O)N=C2C=CC(=O)C=C2)cc1,9,103,102,96*

SMILES,Mtb MenB inh,Polio RdRp inh,Polio RdRp inh intensity,Mtb MbtI inh
O=C(CNS(=O)(=O)c1ccccc1)Nc1cccc(Cl)c1,-3,.,.,-10
Cc1ccc2nc(SCc3c(C)c(C)cc(C)c3C)[nH]c2c1,-51,107,106,-6
COC(=O)c1cc(C(=O)OC)c(=O)[nH]c1C,11,103,102,85
CCOC(=O)c1c(C(F)(F)F)cc(-c2ccccc2)nc1C,-51,103,102,34
O=C(COC(=O)Cc1cccc(C(F)(F)F)c1)Nc1ccc2c(c1)OCO2,-15,103,109,1
Cc1cc(C(=O)Nc2ccc(Cl)cc2)n(-c2ccccc2)n1,-15,106,109,-1
CC(Oc1ccc2ccccc2c1)C(=O)NN (configuration not stated),10,103,105,6
CCc1ccc(-c2cc(C)no2)cc1S(=O)(=O)N1CCc2ccccc21,-16,103,108,-24
CCOC(=O)C(CC)C(N)Cc1ccc(OC)c(OC)c1 (configuration not stated),6,101,101,-1
Cc1cccc(-c2nc(C)c(CCNC(=O)c3c(F)cccc3F)s2)c1,-5,101,105,-17

SMILES,Mtb MenB inh,Polio RdRp inh,Polio RdRp inh intensity,Mtb MbtI inh
O=C(CCCn1c(=S)[nH]c2cc3c(cc2c1=O)OCO3)NC1CCCCC1,-5,103,104,-8
CCOC(=O)c1cc2sccc2n1CCC(=O)O,-7,102,103,10
CC1(C)CC(=O)C2=C(C1)NC(Nc1nc3ccccc3s1)=NC2c1cccnc1 (configuration not stated),-31,102,102,-336
COc1ccccc1C(=O)Nc1ccc2c(c1)COC2=O,-10,101,104,-6
CC(C)C[C@@H](/C=C/S(C)(=O)=O)NC(=O)[C@H](CC(C)C)NC(=O)[C@H](CC(C)C)NC(=O)OCc1ccccc1,-7,103&101,101&99,-1
COc1ccc2c(c1)c(C(=O)O)c(C)n2-c1ccc(Cl)cc1,1,103,101,2
Cc1ccc(C(c2nnnn2CS(=O)(=O)c2ccc(C)cc2)N2CCCC2)cc1 (configuration not stated),-26,101,103,-4
CCOC(=O)CC1=NN(c2ccccc2)C(=O)/C1=C\c1cc(OC)c(OC)cc1OC,-18,106,105,-2
CC(=O)N1Cc2ccccc2C(C)CC12CCCCC2 (configuration not stated),-36,100,90,-4
CCN1CNC(=S)N(c2ccccc2)C1,-14,101,98,-107

SMILES,Mtb MenB inh,Polio RdRp inh,Polio RdRp inh intensity,Mtb MbtI inh
CN(Cc1ccco1)C(=O)C(Cc1ccccc1)NS(=O)(=O)c1ccc2c(c1)CCC(=O)N2 (configuration not stated),6,100,104,-4
CC12C=CC3(CN(Cc4ccccc4)C(=O)C3C1C(=O)NCc1ccco1)O2 (configuration not stated),-10,104,103,4
Nc1cc(S(=O)(=O)C(F)(F)F)cc(S(=O)(=O)C(F)(F)F)c1,-13,107,102,5
Cc1ccc(S(=O)(=O)NC2=NCN(CCOC(=O)c3ccccc3)CN2)cc1,11,102,104,10
O=C(CCNc1ccc(Cc2ccncc2)cc1)c1ccc(Cl)cc1,-18,104,109,.
O=C(COC(=O)Cc1ccccc1F)Nc1cccc(Br)c1,.,101,103,-6
OCCOc1c(Cl)cc(Cl)c2cccnc12,-63,99,97,.
CCOC(=O)/C(C#N)=c1\s/c(=C\Nc2ccccc2)c(=O)n1CC,-58,92,138,-2
O=C(COc1ccc2c(c1)CCC2)NCCc1ccccn1,-20,103,91,-8
Cc1ccc(C(=O)/C=C2\N/C(=N\S(=O)(=O)c3ccc(N)cc3)NC2=O)cc1,5,102,102,16

SMILES,Mtb MenB inh,Polio RdRp inh,Polio RdRp inh intensity,Mtb MbtI inh
O=C(O)c1cncc(Cl)c1,-7,99,105,65
CCOc1ccc(N=Cc2ccc(N(C)CCC#N)cc2)cc1,1,101,104,-1
O=C(O)c1cccn2c(=O)c3c4c(sc3nc12)CCCC4,-21,97,95,1
CCOc1ccc(C/C(N)=N\n2cnnc2)cc1,22,100,102,-13
O=C(Cc1ccccc1)NNC(=S)Nc1ccccc1,-43,99,99,22
COc1ccccc1S(=O)(=O)N1CCNC(=O)C1,-1,.,.,1
COc1ccc(C)cc1CCNCc1ccncc1,19,101,89,5
CCOC(=O)c1c(C)c(C(=O)NCc2ccc(OC)cc2)c(C)n1C,5,103,105,-8
Cc1cccc(-n2nc(C)c3c2NC2=C(C(=O)CCC2)C3c2ccccn2)c1 (configuration not stated),10,99,101,46
O=C(O)[C@H](Cc1ccccc1)N1Cc2ccccc2C1=O,11,99,101,13

SMILES,Mtb MenB inh,Polio RdRp inh,Polio RdRp inh intensity,Mtb MbtI inh
Cc1cc(C(=O)N(Cc2ccco2)Cc2cccs2)no1,-7,103,101,2
CCNC(=O)c1sc2ccccc2c1Cl,-47,102,99,15
Cc1ccccc1C(=O)Nc1cccc(NC(=O)c2ccc(-c3ccc(Cl)cc3Cl)o2)c1,16,96,104,14
O=C(CN1CCc2sccc2C1c1cccs1)Nc1cc2[nH]c(=O)[nH]c2cc1Br (configuration not stated),-19,103,113,0
O=C(c1ccc(N2CCc3ccccc32)s1)N1CCCCCC1,-73,100,100,133
CS/C(=C(/C#N)S(=O)(=O)C(C)C)N1CCCC1,10,107,106,-2
CCC12CN3CN(C1)CC(CC)(C3)C2O (configuration not stated),-34,100,106,-15
CCOC(=O)C1=C(C)C/C(=N\NC(=O)c2ccccc2O)CC1,-44,103,95,-8
CSc1ccc(C2C(C(=O)N3CCCCC3)=C(C)NC3=C2C(=O)CCC3)cc1 (configuration not stated),-10,101,103,-22
NC1=NC(=O)C(C(=O)NC2(C(F)(F)F)Oc3cc(Cl)c(Cl)cc3O2)S1 (configuration not stated),0,105,107,92*

SMILES,Mtb MenB inh,Polio RdRp inh,Polio RdRp inh intensity,Mtb MbtI inh
CCn1c(C(=O)N2CCCC(C(=O)N3CCN(c4cccc(C)c4C)CC3)C2)cc2sccc21 (configuration not stated),-12,100,104,0
CC12CC(c3ccccc3O1)C(/C(N)=N\NC(=O)c1ccc(F)cc1)C(=O)N2 (configuration not stated),-3,104,102,-2
CC1CCN(C(=O)c2cc3n(n2)C(C(F)(F)F)CC(c2ccco2)N3)CC1 (configuration not stated),-25,103,101,-18
C=CCNc1sc2c(N)nc(N)nc2c1C#N,4,105,112,.
CC1(C)CC(=O)NC(=Nc2ccc(Br)cc2)C(=O)C1,-6,104,103,.
Cc1nc2ccccc2c2c1C(=O)N(c1ccccc1)C2=O,-4,102,102,-7
NCc1ccc(C(=O)O)o1,-22,100,102,-7
CCOC(=O)N1CCN(C(=O)CSCC(=O)N=c2sc3ccccc3n2C)CC1,-10,104,104,1
CCCn1c(=O)c(CC(=O)OCC)c(O)c2ccccc21,-27,101,96,-2
c1csc(C2NCc3c(sc4c3CCCC4)-n3cccc32)c1 (configuration not stated),-7,101,108,-1

SMILES,Mtb MenB inh,Polio RdRp inh,Polio RdRp inh intensity,Mtb MbtI inh
CCN(Cc1nc(-c2ccc(OC)cc2)no1)C(=O)/C=C/c1ccc(OC)c(OC)c1,-26,100,101,39
CCOc1cccc(OCCOc2ccc(F)cc2)c1,-26,101,100,-6
CC1=CCP(=O)(c2ccccc2)C1 (configuration not stated),-16,104,85,10
O=C(COC(=O)C1CC2CCCC(C1)C2=O)Nc1cccc2nsnc12 (configuration not stated),16,102,104,5
Cc1ccc(/C(N)=N/OC(=O)Oc2ccccc2)cc1,5,100,103,-4
O=C(O)/C=C/c1ccc(-c2ccc(Cl)cc2)o1,.,102,98,24
COc1cc(/C=C/C(=O)N(Cc2nnc(-c3ccc(Cl)cc3)o2)C2CCCC2)cc(OC)c1OC,-31,102,105,i
CC1(C)C2CCC13CS(=O)(=O)N1OC13C2 (configuration not stated),5,103,102,-4
CCCn1c2ccccc2c2ccccc21,-10,101,100,59
COc1ccc(-n2nnnc2SCC(=O)N2CCCCC2C)cc1 (configuration not stated),13,100,102,-24

SMILES,Mtb MenB inh,Polio RdRp inh,Polio RdRp inh intensity,Mtb MbtI inh
CC(C)c1ccccc1OCC(=O)NC(C)C1CCCO1 (configuration not stated),0,100,103,-10
O=S(=O)(c1cccs1)N1CCN(CCO)CC1,-1,98,103,-17
Cc1noc(C)c1CCC(=O)N1CCC(c2c[nH]c3ccccc23)(c2c[nH]c3ccccc23)CC1,-33,106,100,-2
CCCOc1ccc(=O)n(C)n1,2,104,101,40
CC(C)CC(=O)N1CCN(Cc2ccc(Cl)cc2)CC1,-22,101,94,8
Cc1nnc(CSc2nnc(COc3ccccc3)o2)o1,-9,104,103,15
CCC(C)C1NC(=O)NC1=O (configuration not stated),-14,104,105,5
COc1ccc(CCC(=O)NCC#N)cc1,-7,104,105,-5
COc1ccc(C(=O)CSc2nnc(-c3ccoc3C)n2CC(C)C)cc1,-33,104,103,9
CN(C)CC(C)(C)NS(=O)(=O)c1ccc(Cl)cc1,-14,98,102,0

SMILES,Mtb MenB inh,Polio RdRp inh,Polio RdRp inh intensity,Mtb MbtI inh
Cc1ccn(CCCNC(=O)c2cn(C(C)c3ccccc3F)nn2)n1 (configuration not stated),1,101,103,.
Cc1cc(C(=O)OCC(=O)N(C)C2CCCCC2)c(C)o1,.,103,105,-2
CC1(C(=Nc2ccc(Cl)cc2)C(=O)Nc2ccc(Cl)cc2)OC(=O)C[n+]2ccccc21 (configuration not stated),-5,104,99,4
CN(c1ccccc1)S(=O)(=O)c1ccccc1C(=O)O,-29,100,103,-2
CCN(CC)C(=S)NC(=O)C12CC3CC(CC(C3)C1)C2,-33,101,99,-2
Cc1ccc(CSCc2ccc(C(=O)NCCC(C)C)o2)cc1,-16,103,108,2
Cc1ccc2c(CN3CCCCCC3)cc(=O)oc2c1,-5,101,102,14
c1ccc2[nH]c(SCCCN3CCCCC3)nc2c1,-19,99,99,8
Cn1c(NC(=O)Cc2ccccc2)cc(=O)n(C)c1=O,-2,100,107,-12
CC1CN(C(=O)n2ccnc2)c2ccccc2S1 (configuration not stated),-7,102,105,0

SMILES,Mtb MenB inh,Polio RdRp inh,Polio RdRp inh intensity,Mtb MbtI inh
CCC(Sc1ccc(C(=O)O)cc1)C(=O)O (configuration not stated),-29,100,98,-4
Nc1ncc(Br)cc1S(=O)(=O)NCc1cccnc1,-13,104,101,-7
COc1ccc(CN2C(=O)C(C)N(c3ccc(C)cc3)C2=O)cc1F (configuration not stated),-17,106,100,-10
N#C/C(=C\c1ccc(Cl)cc1Cl)c1c[nH]c2ccccc12,-17,108,101,-12
CC(=O)Nc1ccc(OS(=O)Nc2nnc(C)c3ccccc23)cc1 (configuration not stated),4,104,104,.
CCOC(=O)c1nc2ccccc2c(=O)[nH]1,.,104,108,11
Cc1ccc2oc(=O)c3cnn(CC(=O)NCCCN4CCC(C)CC4)c3c2c1,-5,103,102,-6
COC(=O)c1c(O)c(C=Nc2ccc(Br)cc2)c(=O)n2c1CCC2,-41,111,114,-5
